Screens (PubChem BioAssay)
Bst PK mod: pyruvate kinase (B. stearothermophilus) modulation. AID 361. partly purified Bacillus stearothermophilus pyruvate kinase, luminescence ATP production; ribose 5-phosphate activator present at AC10. Potency, µM. 51,000 compounds, 1.2% hits; in the data active means potency below about 11 µM; inconclusive means mostly about 12 µM to 25 µM; inactive means weaker than that;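 the screen sought inhibitors and activators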;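 further: potency means the concentration at half of the fitted maximal effect; scaled between full activation by ribose 5 phosphate and full inhibition by luteolin; about four in five hits inhibit and the cells do not say which; series up to 57 µM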
YjeE inh: YjeE (TsaE) inhibition, E. coli. purified YjeE, fluorescence polarisation of a bound ADP probe. 71,000 compounds, 0.05% hits. P0AF67. Potency, µM; active = well fitted falling curve; inconclusive = weaker or top-dose-only fall, or a rising curve; inactive = flat or poorly fitted curve;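 further: top concentration of the series not given in the record; excess ADP was the control for the full effect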
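Fluorescence polarization of a BODIPY Texas Red–ADP probe (2 uM) bound to purified YjeE (10 uM) was read after 15 min room-temperature incubation with compounds. Loss of polarization marks inhibitors; ADP serves as titrated control.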
Starred values were filed as active, the others as inactive; i = inactive; ? = inconclusive; . = not tested or not shown.

SMILES	Bst PK mod	YjeE inh
CC(C)(C)C(=O)C(Oc1cccc2nonc12)n1cncn1 (centres undefined)	>57	i
COc1ccc(OCC(=O)N2CCN(C(=O)Cc3ccccc3)CC2)cc1	>57	i
Cc1nc(SCc2nnc(-c3ccc(Cl)cc3)o2)c2c3c(sc2n1)CCC3	>57	i
COC(=O)C1=C(C)N(C)C(=O)NC1c1ccccc1 (centres undefined)	>57	i
CCn1c(CNC(=O)COc2c(C)cccc2C)nnc1SCC(=O)Nc1nccs1	>57	i
COc1cccc2c1OC1(C)CC2NC(=O)N1c1cccc(C(=O)Nc2ccc3c(c2)OCCO3)c1 (centres undefined)	>57	i
CCCCNc1ncnc2c1cnn2-c1ccccc1	.	i
CC(=O)NC(CCS(C)(=O)=O)C(=O)Nc1cc(C)on1 (centres undefined)	.	i
CC(C)n1c(N2CCN(C(=O)c3cccs3)CC2)nc2ccccc21	>57	i
FC(F)(F)c1ccc(N2CCN(c3ncnc4c3nnn4Cc3ccccc3)CC2)nc1	>57	i
Clc1ccc(NCc2nnc3n2CCCCC3)cc1	>57	i
Cc1ccc(-c2nnc(OCCN3CCOCC3)c3ccccc23)cc1	>11	.
O=C(NCc1nc(-c2ccccc2)no1)c1ccc(Br)o1	>57	i
Cc1ccc(-c2nnn(CC(=O)N(CC(=O)NC(C)C)c3cnc4ccccc4c3)n2)o1	>57	i
Cc1ccccc1-n1c(N)cc(=O)[nH]c1=S	>57	i
CCOC(=O)N1CCC(N(C(=O)Nc2cccc(OC)c2)C(C)CC)CC1 (centres undefined)	>57	i
CCN1/C(=C(\O)c2ccccc2)C(=O)c2ccccc2S1(=O)=O	>57	i
COc1ccc(NC(=O)N2CCC3(CC2)CCN(C(=O)c2csnn2)CC3)cc1	.	i
C=CCN1C(=O)CN=C1Nc1ccc(OC)cc1OC	>57	i
CC1(C)CC(=O)N(CC(=O)NC2CCCC2)c2ccccc2S1(=O)=O	.	i
c1ccc(-c2nc(N3CCOCC3)c3ccccc3n2)nc1	.	i
O=C(O)c1cccc(S(=O)(=O)N2CCOCC2)c1	>57	i
Cc1ccc(S(=O)(=O)NCCNC(=O)N2CCOCC2)cc1	>57	i
COc1ccccc1-c1nc(NCc2cccnc2)c2ccccc2n1	.	i
CCN(CCCNC(=O)c1[nH]c(C)c(C(C)=O)c1C)c1cccc(C)c1	>57	i

Structural class: the entries above containing an NH in an aromatic ring
SMILES	Bst PK mod	YjeE inh
Cc1ccccc1-n1c(N)cc(=O)[nH]c1=S	>57	i
CCN(CCCNC(=O)c1[nH]c(C)c(C(C)=O)c1C)c1cccc(C)c1	>57	i

The listing continues.
SMILES	Bst PK mod	YjeE inh
CCCn1c(C)nc2c(NCc3ccccc3)nc(C)nc21	.	i
Cc1ccc2c(c1)-c1c(cnn1CC(=O)N1CCCN(Cc3ccccc3F)C1)CO2	.	i
Cc1cc(N2C(=O)C(=O)/C(=C(/O)c3ccccc3)C2c2cccs2)no1 (centres undefined)	>11	.
O=C(CSc1nnc(-c2ccco2)o1)N1CCOCC1	>57	i
CCOC(=O)c1cnc2nc[nH]n2c1=O	.	i
C=CCNCc1cccn1-c1sc2c(c1C#N)CCCC2	.	i
Cc1ccc(O)c(N)c1	.	i
Oc1ccc(N2CCN(C(c3cccs3)c3nnnn3CCc3ccccc3)CC2)cc1 (centres undefined)	>57	i
C=CCn1c(SCC(=O)NC2CCCCC2)nnc1C(C)NC(=O)c1cccs1 (centres undefined)	>57	i
O=C(c1cccnc1)N1CCc2ccccc21	.	i
CC(=O)Nc1ccc2nc(SCC(=O)O)sc2c1	>57	i
Cc1ccc(N2CN=c3s/c(=C\c4ccccn4)c(=O)n3C2)cc1	.	i
Cc1cccc(-c2ccc(C=Nc3c(C)n(C)n(-c4ccccc4)c3=O)o2)c1	.	i
Cc1ccc2nc(-c3cccc(NC(=O)c4ccc5c(c4)OCCO5)c3)oc2c1	.	i
Cc1ccc(C2NC(=O)NC(O)(C(F)(F)F)C2C(=O)c2ccccc2)o1 (centres undefined)	>57	i
O=C(O)CC1C(=O)NCCN1C/C=C/c1ccccc1 (centres undefined)	.	i
COC(=O)c1c(NC(=O)CCCC(=O)O)sc(C)c1C	.	i
CC(=O)c1ccc(N2C(=O)C3C(C2=O)C(C(=O)c2ccc(Cl)cc2)N2CCCC32)cc1 (centres undefined)	>57	i
CC(C)(C)c1ccc(S(=O)(=O)n2c(CN3CCOCC3)nc3ccccc32)cc1	>57	i
CCCCN1CC(O)=C(c2nc3ccccc3s2)C1=N	>57	i
Cc1cc(C)cc(NC(=O)C2CCN(c3nc(C)cc(C)n3)CC2)c1	>57	i
O=C(CCSc1ccccc1)Nc1ncccn1	>57	i
N#Cc1c(NC(=O)CCC(=O)O)ccc2ccccc12	.	i
COCCn1c(=O)c(-c2cn(C)c3ccccc23)nc2cnc(Oc3cccc(Cl)c3)nc21	.	i
COC(=O)c1ccccc1NC(=O)C1CC(c2ccccc2O)=NO1 (centres undefined)	>11	i

Another view of 3 compounds above:
Values run as follows: Bst PK mod	YjeE inh
N#Cc1c(NC(=O)CCC(=O)O)ccc2ccccc12
 : .	i
COCCn1c(=O)c(-c2cn(C)c3ccccc23)nc2cnc(Oc3cccc(Cl)c3)nc21
 : .	i
COC(=O)c1ccccc1NC(=O)C1CC(c2ccccc2O)=NO1 (centres undefined)
 : >11	i

Exported with the structure last: part of the list above.
| Bst PK mod | YjeE inh | compound |
| --- | --- | --- |
| >57 | i | CC(=O)c1ccc(N2C(=O)C3C(C2=O)C(C(=O)c2ccc(Cl)cc2)N2CCCC32)cc1 (centres undefined) |
| >57 | i | CC(C)(C)c1ccc(S(=O)(=O)n2c(CN3CCOCC3)nc3ccccc32)cc1 |
| >57 | i | CCCCN1CC(O)=C(c2nc3ccccc3s2)C1=N |
| >57 | i | Cc1cc(C)cc(NC(=O)C2CCN(c3nc(C)cc(C)n3)CC2)c1 |

(more compounds)
SMILES	Bst PK mod	YjeE inh
COc1ccc(N2C(=O)CC(N3CCN(C4CCc5ccccc5C4)CC3)C2=O)cc1 (centres undefined)	>57	i
COc1cccc(C(c2sc3nc(C)nn3c2O)N2CCN(c3ccccc3F)CC2)c1 (centres undefined)	.	i
COc1cc2c(cc1OC)[C@@H]1C(=O)c3ccc4c(c3O[C@@H]1CO2)C=CC(C)(C)O4	.	i
CN1CCN(c2ncnc3ccc(-c4ccc(C(=O)N(C)C)cc4)cc23)CC1	.	i
COC(=O)COc1ccc(S(=O)(=O)NCc2ccco2)cc1Cl	>57	i
Cc1ccc2c(C)nc(NC3=NCN(CCc4ccccc4)CN3)nc2c1	.	i
COC(=O)C1CCCN1S(=O)(=O)c1ccc2ccccc2c1 (centres undefined)	.	i
CCOC(=O)c1[nH]c(C)c(C(=O)OCCN2C(=O)c3ccccc3C2=O)c1C	>57	i
CN/C=C1\C(=O)C(C)(C)Oc2ccc3ccc(=O)oc3c21	>57	i
COCC(=O)N1CCC2(CC1)CN(c1ccncc1)C2	.	i
CC(=O)C1=C(O)C(=O)N(Cc2ccco2)C1c1ccccc1 (centres undefined)	>57	i
N#Cc1ccc(-c2nnnn2-c2ccc3c(c2)OCO3)cc1	>57	i
Cc1nnc(SCC(=O)NCCOc2ccc(Cl)cc2)n1-c1ccccc1	.	i
COCCNc1cc(-c2ccccc2C(F)(F)F)ncn1	.	i
CCCn1c(=O)c2[nH]c(C3CCCC3)nc2n(CCC)c1=O	>26	i
Cc1nn(-c2ccccn2)c2c1C(c1ccsc1)C1=C(CCCC1=O)N2 (centres undefined)	>57	i
CCOc1ccc(NC(=O)N(C2CCCCC2)C2CCN(C(C)=O)CC2)cc1	.	i
Cc1cc(C)nc(SCc2ccc(C(=O)O)o2)n1	>57	i
C/C(Cl)=C/CN1C(=O)C2C3C=CC(C3)C2C1=O (centres undefined)	>57	i
COCCCNC(=O)c1cccc(C(=O)NCCCOC)c1	.	i
COc1ccc(C(c2nnnn2CC2CCCO2)N2CCN(c3cccc(C)c3C)CC2)cc1 (centres undefined)	>57	i
Cc1onc(-c2ccccc2)c1C(=O)Nc1ccc2c(c1)OCO2	.	i
COc1ccc(C2C(C(C)=O)=C(O)C(=O)N2CCN(C)C)cc1OC (centres undefined)	.	i
CCn1c(=O)cc(OCC(=O)NCCCN2CC(C)CC(C)C2)c2ccccc21 (centres undefined)	>57	i
O=C1C(Cl)=C(NCC2CCCO2)C(=O)N1c1ccccc1 (centres undefined)	>57	i

(list continues)
SMILES	Bst PK mod	YjeE inh
O=C1CCCCCC1C1(O)C(=O)Nc2ccc(Br)cc21 (centres undefined)	>57	i
CCSc1nnc(N(CCC#N)CCC#N)s1	>11	.
Cc1ccc(CNC(=O)c2cn(C3CCCCC3)c(=O)c3c2c2ccccc2n3C)o1	.	i
CCOC(=O)CSc1nc(N(C)C)nc(N(C)C#N)n1	>26	.
O=C(CSc1nccc(=O)[nH]1)N1c2ccccc2CCc2ccccc21	>57	i
c1coc(CNc2ncnc3nc[nH]c23)c1	.	i
CCOC(=O)C1CCN(C(=O)COc2cc(C)c(Br)c(C)c2)CC1	.	i
Cc1ccn(CCSCC(=O)O)n1	>57	i
Cc1cc(N2CCCN(C)CC2)nc2cc(Cl)ccc12	.	i
Cc1cccc(C)c1NC(=O)CSc1nnc(-c2ccoc2C)n1CCc1ccccc1	>57	i
CCOC(=O)C1=C(C)NC2=C(C(=O)c3ccccc32)C1c1cccnc1 (centres undefined)	>57	i
COc1ccc(-c2cn3cccnc3n2)cc1NC(=O)C1CCCC1	>57	i
COc1ccccc1OCC(=O)Nc1oc(-c2ccccc2)c(-c2ccccc2)c1C#N	>57	i
Cc1ccc2cc(CN(Cc3ccc4c(c3)OCO4)Cc3nnnn3Cc3ccco3)c(=O)[nH]c2c1C	>57	i
O=C(NCC(=O)N(Cc1ccc(F)cc1)C(C(=O)NC1CCCC1)c1ccco1)c1ccco1 (centres undefined)	>57	i
NC(=O)N[C@H]1NC(=O)NC1=O	.	i
O=C(Nc1cccc(C(=O)N2CCCC2)c1)c1ccccc1	>57	i
CC1=CC(C)(C)N2C(=O)C3(C(C#N)=C(N)Oc4cc(O)ccc43)c3cccc1c32 (centres undefined)	>57	i
COC(=O)CSc1cc(C(=O)c2nccn2C)c2ccccc2n1	>57	i
COCCn1c(SCC#N)nnc1-c1ccccc1	>57	i
O=C(O)c1ccc(NS(=O)(=O)c2ccc(Cl)c(Cl)c2)cc1O	?	i
Cc1nn(-c2ccccc2)c2c1P(=O)(O)/C(=C1\N(C)c3ccccc3C1(C)C)C=N2	>57	i
CCOC(=O)c1sc(NC(=O)CSc2nncs2)c(C(=O)OCC)c1C	>57	i
CCOc1cc(-c2nc(-c3ccccc3OC)no2)cc(OCC)c1OCC	>57	i
CCN(CC)CCNC(=O)c1nn(-c2ccc(C)cc2)c(=O)c2c1c1ccccc1n2C	>57	i

Remaining list, next part.
SMILES	Bst PK mod	YjeE inh
CN(C)CCCN1c2ccccc2CCc2ccc(Cl)cc21	>26	i
O=c1c2cnn(-c3ccccc3)c2ncn1Cc1cccc(Cl)c1	.	i
COCc1cc(=O)n2[nH]c(SC)nc2n1	>57	i
CCOC(=O)c1c(/N=C/N(C)C)sc(C(=O)OC)c1C	>57	i
CCOC(=O)c1ccc(NC(=O)CC2C(=O)N(c3cccc(OC)c3)C(=O)N2CCOC)cc1 (centres undefined)	>57	i
C=C(C)CSc1nncn1/N=C/c1ccc(OC)cc1	>57	i
CCCC(=O)NCCc1nc2ccccc2n1C	>57	i
Cc1cc(C)nc(SCC(=O)Nc2ccc(N3CCOCC3)cc2)n1	>57	i
Cc1nc2ccc(S(=O)(=O)NC(C(=O)N3CCCCCC3)C(C)C)cc2s1 (centres undefined)	.	i
CC1(C)CN(O)CCN1O	>26	.
COc1ccc(OC)c(NC(=O)C2CCCN(S(=O)(=O)c3cccc4cccnc34)C2)c1 (centres undefined)	.	i
COC(=O)c1cn(NC(=O)CC2CCCCC2)c(=O)c2ccccc12	>57	i
N#C/C(C(=O)NCc1ccco1)=C1/SC(Cc2ccc(Cl)cc2)C(=O)N1c1ccccc1 (centres undefined)	>26	.
Cc1cc(C)n2nc(NCc3cccc(Br)c3)nc2n1	?	i
Fc1ccc(CNc2ccc(CNc3ncn[nH]3)cc2)cc1	>57	i
CC(C)Cc1cc(C(=O)Nc2cc(Cl)ccc2Cl)no1	.	i
O=c1c2cc(Cl)ccc2oc2nc3n(c(=O)c12)CCCS3	>57	i
CCCc1nc(N2CCOCC2)c(C#N)c2c1CCCC2	>26	.
COc1cc(C)c(Cl)cc1S(=O)(=O)NCc1ccncc1	>57	i
CCOCCCn1c(=S)[nH]c2cc(C(=O)NCCN(CC)CC)ccc2c1=O	>57	i
CSc1nc(C)c(Oc2ccccc2)c(=O)n1C	.	i
COc1ccc(OC)c(NC(=O)c2ccc(NS(=O)(=O)c3c(C)noc3C)cc2)c1	>57	i
CN(C)c1ncc2nc(-c3cc(F)cc(F)c3)c(=O)n(Cc3ccc(F)cc3)c2n1	.	i
O=C(c1ccncc1)N1CCN(C(=O)c2cccs2)CC1	>57	i
COC(=O)c1ccc(C2C(C(C)=O)=C(C)Nc3ncnn32)cc1 (centres undefined)	.	i
CCCn1c(=N)n(CC(=O)c2ccco2)c2ccccc21	>57	i
CCCSCCCNC(=O)Cn1cc2c(n1)CCC(C)C2 (centres undefined)	.	i
O=C(Nc1ccc(N2CCOCC2)cc1)C1(S(=O)(=O)c2ccccc2)CC1	.	i
O=C(Nc1cccc(F)c1)N1CC2(CCN(C(=O)c3cc(C(F)(F)F)cc(C(F)(F)F)c3)CC2)C1	.	i

An excerpt (hit frequency here may not be typical).
